# E coli growth: blocks Escherichia coli growth; 0.21% of 330,000 active; OD600 absorbance (no concentration beside the values); OD600, 23 h; hits give low values; AID 1053175;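 active = OD600 absorbance below the run mean of sample wells minus 3.6 SD, in any replicate, cut at about 0.56 in these data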;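 also: stock transfer was 300 nL into about 60 µL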
# Vif TR-FRET: HIV-1 Vif–A3G interaction blockers – biochemical, TR-FRET, GST-Vif 1-94, biotin-A3G peptide, dose response retest, primary screen (AID 1117319); TR-FRET GST-Vif / biotin-A3G peptide binding; higher % means a stronger effect; test concentration not given here; strong numbers were not always called active; one-dose inhibition, %; IC50 in µM for titrated hits; 0.57% of 260,000 active;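 active = above the screen mean plus three standard deviations and confirmed in dose response; inconclusive = results disagree or hit not tested in dose response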;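 also: Vif residues 1-94 fused to GST binding biotinylated APOBEC3G peptide 110-148; 0% = full assay without inhibitor and 100% = GST in place of GST-Vif; retest series ran down from 100 µM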
# FGF22 binding: shifts melting point of recombinant human FGF22; AID 651658; recombinant FGF22 thermal shift, SYPRO orange fluorescence; percent of sucrose octasulfate shift, DMSO zero; Q9HCT0; 1.5% of 340,000 active; calls only at 9.99 µM;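 active = melting point raised past a set limit in the mean and every replicate; inconclusive = no clear call; three in four hits are not shown here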
# Target sequence (Q9HCT0 whole entry, looked up): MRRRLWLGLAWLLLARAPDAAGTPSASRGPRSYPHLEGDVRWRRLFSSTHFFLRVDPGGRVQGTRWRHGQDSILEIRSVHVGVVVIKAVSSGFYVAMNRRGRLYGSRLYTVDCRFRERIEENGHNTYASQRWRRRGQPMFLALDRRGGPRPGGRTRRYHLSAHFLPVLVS
# HNF4A DNA FP: change in binding of human HNF4 alpha to DNA. AID 1224865. activity change, % at 10 µM. HNF4a-FITC DNA binding, fluorescence polarization, 1 h. P41235. 0.3% of 360,000 active; in the data active = activity change above about 30%, passing the limit was not always enough;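 also: controls were the assay level and a saturating level of protein; the project sought stronger binding though the title names inhibitors; some compounds called inactive have numbers as strong as hits; positive values seem to mean higher polarization but the record does not say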
# MLL AF4-AF9 inh: inhibitors of human MLL-AF4/AF9 interaction; AlphaScreen, biotin-AF4 peptide binding to FLAG-AF9; inhibition, % at 10 µM; 0.47% of 350,000 active; P42568;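 active = every replicate reaching a set inhibition limit, whatever the replicate mean, cut at about 25% in these data; inconclusive = mean inhibition reaches that limit but some replicates miss it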;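 also: 0% = plate neutral control median and 100% = total signal loss; the record names both 10 and 1 µM as test concentration; the first replicate is given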
# Target sequence (P42568 whole entry, looked up): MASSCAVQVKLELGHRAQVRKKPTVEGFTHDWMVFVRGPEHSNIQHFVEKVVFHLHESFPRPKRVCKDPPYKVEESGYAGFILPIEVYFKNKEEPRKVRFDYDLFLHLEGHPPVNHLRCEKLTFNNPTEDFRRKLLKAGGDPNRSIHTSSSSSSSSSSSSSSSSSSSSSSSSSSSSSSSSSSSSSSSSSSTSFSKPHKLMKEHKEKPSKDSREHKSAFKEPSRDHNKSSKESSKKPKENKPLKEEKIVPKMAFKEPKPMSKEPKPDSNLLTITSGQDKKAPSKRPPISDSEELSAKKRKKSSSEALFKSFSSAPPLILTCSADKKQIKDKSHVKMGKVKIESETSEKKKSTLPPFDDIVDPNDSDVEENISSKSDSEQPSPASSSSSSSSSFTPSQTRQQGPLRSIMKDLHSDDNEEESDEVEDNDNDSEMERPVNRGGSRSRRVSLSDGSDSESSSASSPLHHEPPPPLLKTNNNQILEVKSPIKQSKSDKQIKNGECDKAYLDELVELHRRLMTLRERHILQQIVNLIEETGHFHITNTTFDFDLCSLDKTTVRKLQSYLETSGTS
# RanGTP-Imp inh: inhibitors of RanGTP-importin-beta interaction, primary screen, biochemical, FRET, CFP-Ran, YFP-importin-beta, homogeneous; cell-free CFP-Ran/YFP-importin-beta FRET ratio; inhibition, % (concentration not given with the values); 1.1% of 300,000 active;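 active = most replicates above 15%; inconclusive = exactly half above 15%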;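 also: 0% = DMSO wells and 100% = Ran loaded with GDP instead of GTP; wells of about 40 µL received 100 nL stock; the first replicate is given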
# UCH37 DUB inh: human UCH37 deubiquitinating enzyme inhibition. purified proteasome/UCH37, Ub-AMC cleavage fluorescence. inhibition, % (concentration not given with the values). 0.33% of 330,000 active. AID 588478;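 active = mean of two replicates above 20%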;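 also: 0% = compound-free wells with enzyme and 100% = wells lacking proteasome; stock transfer was 100 nL into about 20 µL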
# Target sequence (Q9Y5K5 whole entry, looked up): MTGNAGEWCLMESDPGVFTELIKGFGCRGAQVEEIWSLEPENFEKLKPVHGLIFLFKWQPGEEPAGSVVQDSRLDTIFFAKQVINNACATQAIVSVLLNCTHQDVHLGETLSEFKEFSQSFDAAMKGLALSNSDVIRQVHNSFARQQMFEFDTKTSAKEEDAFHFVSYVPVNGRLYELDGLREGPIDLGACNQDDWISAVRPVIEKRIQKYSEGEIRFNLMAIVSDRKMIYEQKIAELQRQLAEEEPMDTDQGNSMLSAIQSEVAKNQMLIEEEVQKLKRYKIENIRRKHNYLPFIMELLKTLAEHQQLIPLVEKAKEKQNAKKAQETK
#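 Test system – human UCH37 enzyme supplied as purified proteasome complex · Incubation – 30 min preincubation with enzyme, 25 min cleavage at room temperature · Detection – AMC fluorescence from Ub-AMC cleavage, excitation 355 nm, emission 460 nm · Benchmarks – no-proteasome wells (full inhibition) and compound-free wells (no inhibition)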
# The depositor's hits bear a star; i = inactive; ? = inconclusive; . = no result given. Not all compounds are listed, so the mix of outcomes need not match the whole.
SMILES,E coli growth,Vif TR-FRET,FGF22 binding,HNF4A DNA FP,MLL AF4-AF9 inh,RanGTP-Imp inh,UCH37 DUB inh
CC1CN(S(=O)(=O)c2ccc(C(=O)N(CCCN(C)C)c3nc4c(Cl)cccc4s3)cc2)CC(C)O1 (centres undefined),0.65,.,i,-2.2,8.0,0.4,1.5
N#Cc1ccc(OC(=O)c2cnccn2)cc1,0.7,.,i,0.5,-0.9,-2.2,4.7
CC(=O)c1ccc(N2CCN(C(=O)c3cn(Cc4ccccc4)nc3-c3cccnc3)CC2)c(F)c1,.,.,i,2.3,1.0,.,.
COc1cc2[nH]c(=O)n(Cc3ccc(C(=O)N4CCC(N5CCCCC5)CC4)cc3)c(=O)c2cc1OC,0.72,.,.,2.7,.,0.0,-6.0
CCCCCNC(=O)c1cccc(S(=O)(=O)N2CC3(C)CC2CC(C)(C)C3)c1 (centres undefined),0.66,-1%,i,3.5,-0.6,1.4,1.3
CN(C)c1cccc(CNC(=O)c2ccc3nc([C@@H]4O[C@H](CO)[C@H](O)[C@H](O)[C@H]4O)[nH]c3c2)c1,.,.,i,-1.4,-4.9,.,.
N#CC(C#N)=C(N)CSc1cccc[n+]1[O-],0.65,13%,i,-0.2,-0.4,3.7,-0.9
CC1(C(=O)Nc2ccc3c(c2)OCCO3)CCC(=O)N1CCc1c[nH]c2ccccc12 (centres undefined),.,.,i,2.6,-6.0,.,.
O=C1OCCN1C(=O)[C@H]1[C@H](c2ccc(F)cc2)C(c2ccc(F)cc2)=NN1c1ccccc1,.,28%,i,-0.5,-7.2,-4.4,-5.9
CN[C@H](C(=O)NC[C@H]1O[C@@H](n2cnc3c(N)ncnc32)[C@H](O)[C@@H]1O)[C@@H](C)OCc1ccccc1,0.67,0%,i,2.9,-1.5,.,0.7
CC1(C)CC(=O)c2c(nc3ccccc3c2N)C1,0.71,-1%,.,2.4,.,0.4,-9.1
C/C(=N\NC(=S)NC(C)C)c1ccc(C(C)(C)C)cc1,.,0%,i,9.8,5.4,-3.0,.
Fc1ccccc1CSc1ncnc2c1ncn2C1CCCO1 (centres undefined),0.64,4%,i,-0.1,-5.6,.,1.0
Cc1ccc(-c2csc(NCCn3c(C)nc4cc(C(F)(F)F)ccc43)n2)cc1,0.71,.,i,1.3,3.6,.,0.5
O=C(Nc1ccc(SC(F)F)cc1)c1cc(-c2ccncc2)nc2ccccc12,0.69,.,i,4.1,5.1,.,4.5
Cc1cc(C)n2c(Nc3ccc4c(c3)OCCO4)c(C3CC3)nc2n1,.,.,i,-1.6,6.4,.,.
COC(=O)c1cn(NC(=O)c2cccnc2)c(=O)c2ccccc12,0.67,-2%,.,-2.0,.,5.6,-1.9
CCOC(=O)C1CCCN(C(=O)Cn2nc(CC)n3c(cc4sccc43)c2=O)C1 (centres undefined),0.79,4%,i,1.5,1.4,-0.4,2.5
Cc1sc2nc(SCC(N)=O)n(C)c(=O)c2c1C,0.72,4%,.,-2.6,.,-3.6,7.0
CC1(c2nnnn2Cc2ccccc2)CCC(=O)N1Cc1cccc(C(F)(F)F)c1 (centres undefined),.,.,i,2.2,0.2,.,.
CCOc1cc(N2CCOCC2)c(OCC)cc1NC(=O)c1cccc(N(C)C)c1,0.7,18%,i,-0.3,6.3,3.7,2.5
CSc1ccccc1NC(=S)NCc1ccc(Cl)cc1,0.65,.,i,3.2,3.8,2.1,5.1
COc1ccccc1C(=O)NN=C1CCN(Cc2ccccc2)CC1,0.61,.,.,12,.,-1.3,-2.5
CC1(C(=O)NS(=O)(=O)C2CC2)CCCN(C(=O)c2cc3ccccc3s2)C1 (centres undefined),.,.,i,-6.5,-1.8,.,.
Cc1c(C(=O)N2CCN(c3ccc(F)cc3)CC2)sc2nc3n(c(=O)c12)CCC3,0.71,.,i,-1.1,1.5,-2.5,4.9
COc1cc2[nH]c(=O)n(CCC(=O)NC3CCCC3)c(=O)c2cc1OC,0.81,3%,.,1.7,.,0.4,-11
Cc1noc(C)c1CS(=O)(=O)c1ccc([N+](=O)[O-])cc1,0.65,-7%,i,-1.3,-1.7,-1.2,0.8
CCOc1cc2[nH]c(=O)n(CCCC(=O)NCc3ccc(OC)cc3)c(=O)c2cc1OCC,0.71,3%,.,-3.0,.,0.0,-7.7
CCOC(=O)c1c(C)[nH]c(C)c1S(=O)(=O)N(C)CC(=O)Nc1ccccc1F,0.72,.,i,6.3,0.8,0.9,3.1
CN(C)S(=O)(=O)c1ccc(C(=O)OCc2ccc(C#N)cc2)cc1,0.74,?,.,-3.1,.,-3.6,-7.1
CCC(C)NC(=O)Cc1ccc(-c2ccccc2)cc1 (centres undefined),0.68,6%,.,1.2,.,1.1,0.5
NC(=S)c1cnn2c(-c3cccc(C(F)(F)F)c3)ccnc12,0.67,-3%,i,3.9,1.1,?,1.9
O=C1CN(C(=O)NCC(=O)N[C@@H](C(=O)O)c2ccccc2)c2ccccc2N1,0.73,.,i,0.2,0.4,2.5,4.0
COc1ccc(CCNC(=O)c2ccc3nc(N4CCOCC4)sc3c2)cc1OC,0.68,.,i,6.1,-8.9,?,5.8
COc1cc(CCC(=O)OCC(=O)Nc2ccc(F)c(F)c2F)cc(OC)c1OC,0.67,-3%,i,0.5,-1.6,0.7,0.6
COc1cc(OC)cc(C(=O)Nn2cc(C(=O)Nc3ccc(F)cc3F)c3ccccc3c2=O)c1,0.66,-3%,.,-2.8,.,0.3,-1.7
O=C(N/N=C/c1ccc([N+](=O)[O-])s1)c1cccc(Br)c1,.,-7%,.,-1.5,.,2.9,.
CCN(CCn1cccn1)C(=O)c1ccc(OC2CCN(C(=O)CCOC)CC2)cc1,.,7%,i,-4.4,-2.6,.,.
COc1ccc(S(=O)(=O)N2CCN(C(=S)NCCc3ccccc3)CC2)cc1,0.64,.,i,-1.4,2.1,11,1.7
COc1ccc(NC(=O)CN2CCN(CC(=O)Nc3ccc(F)cc3F)CC2)cc1,0.66,-1%,i,2.2,1.1,7.0,0.5

# Individual results from the entries so far.
# CN(C)S(=O)(=O)c1ccc(C(=O)OCc2ccc(C#N)cc2)cc1 @ E coli growth: 0.74
# CCOc1cc2[nH]c(=O)n(CCCC(=O)NCc3ccc(OC)cc3)c(=O)c2cc1OCC @ Vif TR-FRET: 3%

# Later entries.
SMILES,E coli growth,Vif TR-FRET,FGF22 binding,HNF4A DNA FP,MLL AF4-AF9 inh,RanGTP-Imp inh,UCH37 DUB inh
COc1cc(NC(=O)CSc2nccc(C)n2)c(C)cc1[N+](=O)[O-],0.66,.,i,-0.7,3.6,-1.4,6.9
CCOc1ccccc1NC(=O)Nc1cc(OC)ccc1OC,0.72,-2%,.,2.5,.,0.6,1.3
CCOC(=O)CSc1nnc(-c2ccco2)n1-c1ccc(C)cc1,0.71,-5%,.,-2.4,.,-2.3,2.3
O=C(NC(Cc1c[nH]c2ccccc12)C(=O)O)c1cccs1 (centres undefined),0.68,-1%,i,-0.3,-0.5,-0.2,-2.2
COC(=O)CCCC1=CC2=CC(=O)C(C)(OC(=O)c3cccs3)C(=O)C2=CN1CC(C)C (centres undefined),0.68,29%,i,-0.5,-5.6,-3.1,0.7
COc1cc(OC)cc(-c2c(C#Cc3ccsc3)c3cc(-c4ccc5c(c4)OCO5)ccc3n2C)c1,0.69,.,i,5.5,1.1,.,-48
O=c1ccc(NS(=O)(=O)c2ccc(Cl)cc2)cn1Cc1ccc(Cl)c(Cl)c1,0.65,32%,.,8.0,.,3.8,3.4
COc1cc(OC)c(N(C)S(=O)(=O)c2cccc(C(=O)NCc3cccs3)c2)cc1Cl,.,2%,i,-1.3,-1.1,.,.
COc1ccc(F)c(-c2nc(CN3CCC(c4ccccc4)CC3)c(C)o2)c1,0.68,3%,i,-6.0,12,-3.1,-1.0
CCOc1ccc(C(CC(=O)O)NC(=O)C(c2ccccc2)c2ccccc2)cc1OC (centres undefined),0.7,-10%,i,1.0,1.9,.,1.1
CC1CCCC(NC(=O)C2CC(=O)N(Cc3ccccc3)C2)C1C (centres undefined),0.73,.,i,-6.6,2.8,4.8,1.8
CCN(CC(=O)Nc1cccc(OC)c1)CC(=O)Nc1ccc(Br)c(C)c1,0.66,8%,i,2.4,-0.1,-5.2,6.8
Cc1ccc(NC(=O)CC(=O)Nc2ccc(C)cc2C)c(C)c1,0.69,-2%,i,1.6,0.4,-0.5,1.1
c1ccc(CNc2ccc3ccccc3n2)nc1,0.64,-1%,i,-0.9,0.3,1.1,-28
Cc1ccc(S(=O)(=O)N(C(=O)c2ccncc2)c2ccc(OC(=O)c3ccncc3)c3ccccc23)c(C)c1,0.78,30%,.,1.7,.,-4.6,3.9
C[C@@H](CN1C(=O)C(=O)NC[C@@H]1C)NC(=O)CC12CC3CC(CC(C3)C1)C2,.,.,i,6.4,0.1,-0.2,1.6
CN1C(=O)/C(=C/c2cn(CC(=O)N3CCCCC3)c3ccccc23)NC1=S,0.76,-5%,i,1.6,-1.1,.,4.2
O=c1[nH]c(-c2ccccc2)c(-c2ccccc2)o1,0.68,-6%,i,1.2,-1.0,-0.2,-19
COc1ccc(C2(c3ccc(OC)cc3)NC(=O)N(CC(=O)NC3(C#N)CCCC3)C2=O)cc1,0.66,?,i,2.4,1.6,.,2.3
O=C(O)c1cccnc1SCC(=O)N1CCCc2ccccc21,0.67,10%,i,-0.4,-1.6,-1.4,4.0
COc1ccc(CC(=O)N/N=C/c2cccn2-c2ccc([N+](=O)[O-])cc2)cc1OC,.,7%,.,-3.2,.,0.4,.
CCCCNC(=S)N(CCCO)Cc1cc2cc3c(cc2[nH]c1=O)OCO3,.,0%,i,-0.2,-0.8,.,.
Cc1ccc2cc(/C=N/NC(=O)[C@@H]3CCCN3)c(Cl)nc2c1,.,8%,i,3.0,3.3,-1.1,.
FC(F)(F)c1cnc(Oc2ccc(-c3nnco3)cc2)c(Cl)c1,0.73,-4%,.,-2.0,.,-2.4,0.1
Cc1csc2ncnc(N3CCN(S(=O)(=O)c4cccc(C(F)(F)F)c4)CC3)c12,0.71,.,i,-0.8,-2.1,-2.8,0.7
Cc1ccc2nc(NC(=O)CSc3nc4ccccc4o3)sc2c1,0.62,-4%,.,2.8,.,-4.2,-0.7
CCOC(=O)Nc1sc(NS(=O)(=O)c2ccc(C)cc2)nc1C,0.62,17%,i,-0.8,8.9,1.4,1.6
COc1ccc(Cc2nc3ccc(C(=O)NCCn4ccnc4C)cc3o2)cc1OC,0.74,.,i,-4.9,-8.6,1.5,0.8
COc1ccc(-c2csc(NS(=O)(=O)c3ccc([N+](=O)[O-])cc3)n2)cc1,0.71,-4%,.,0.7,.,-4.5,1.6
c1ccc(CCn2nnnc2CN2CCCc3ccccc32)cc1,0.64,22%,.,1.6,.,-18,2.2
NC(=O)c1c(NC(=O)c2ccncc2)sc2c1CCCCCC2,0.72,1%,i,5.3,-4.3,1.5,4.0
O=C(CN1CCN(c2ccc(F)cc2)CC1)Nc1ccc(-n2cnnn2)cc1,0.69,21%,.,0.1,.,-1.4,1.8
Nn1c(SCC(=O)Nc2ccc3c(c2)OCO3)nnc1-c1ccc(Cl)cc1,0.68,-7%,.,5.4,.,-3.1,3.2
O=C(c1ccco1)N1CCN(S(=O)(=O)c2cccc(Cl)c2)CC1,0.66,.,i,-2.0,-3.6,-3.4,0.4
Cc1nn(-c2ccccc2)c(OC(=O)c2cccs2)c1S(=O)(=O)c1ccc([N+](=O)[O-])cc1,0.66,32%,.,3.0,.,0.9,7.6

# From PubChem
